PKD1 kinase inh: inhibitors of human PKD1 kinase. PKD1 kinase fluorescence polarization assay. inhibition, %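 (about 10 µM by stock and volumes)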. 0.056% of 200,000 active. AID 797;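 active = inhibition of 50% or more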;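 note: controls were vehicle for no effect and a reference inhibitor for full effect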
GALR2 agonist: GALR2 (human) receptor agonism; GALR2-expressing cells, agonist activation read-out; 0.48% of 140,000 active; O43603; AID 803; activation, %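 (tested at 5 µM)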;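 active = above mean plus 3 SD of all compounds, about 5% in these data, not always enough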;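 note: 0% = vehicle buffer wells and 100% = reference agonist at full effect; tested in CHO reporter cells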
Target sequence (O43603 whole entry, looked up): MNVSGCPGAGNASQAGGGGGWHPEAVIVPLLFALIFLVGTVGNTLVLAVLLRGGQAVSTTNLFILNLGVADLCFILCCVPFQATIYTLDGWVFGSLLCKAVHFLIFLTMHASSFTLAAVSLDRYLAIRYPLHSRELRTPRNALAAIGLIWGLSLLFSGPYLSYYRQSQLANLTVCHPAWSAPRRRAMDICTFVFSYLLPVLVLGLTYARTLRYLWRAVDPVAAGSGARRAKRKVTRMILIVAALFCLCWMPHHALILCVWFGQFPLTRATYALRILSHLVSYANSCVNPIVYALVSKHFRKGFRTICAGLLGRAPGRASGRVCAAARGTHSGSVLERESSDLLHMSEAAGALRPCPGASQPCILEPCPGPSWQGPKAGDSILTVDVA
HSV augment: increases HSV replication in cells. 0.005% of 220,000 active. HSV replication augmentation in cells, fold increase. maximum fold increase;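 active = peak rise of 1.5-fold or more in the series; tested in PC3 cells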;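 note: first round at 10 µM; read as green reporter fluorescence; hits show the peak of a series up to 25 µM; 1 = signal of infected wells without compound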
RGS16-Gao HTS: RGS16-Galphao interaction regulator (human) | O15492+P09471 | bead-based flow cytometry RGS16-Galphao binding, fluorescence; actives lie on both sides | binding response (% of control), % at 10 µM | 0.38% of 220,000 active;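 active = below 25% or above 175%, edge rows of some plates excepted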;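 note: Galphao activated by GDP with aluminum fluoride before binding; 100% = wells without compound and 0% = beads without RGS; some results beyond the cut were filed as inactive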
Target sequence (O15492 whole entry, looked up): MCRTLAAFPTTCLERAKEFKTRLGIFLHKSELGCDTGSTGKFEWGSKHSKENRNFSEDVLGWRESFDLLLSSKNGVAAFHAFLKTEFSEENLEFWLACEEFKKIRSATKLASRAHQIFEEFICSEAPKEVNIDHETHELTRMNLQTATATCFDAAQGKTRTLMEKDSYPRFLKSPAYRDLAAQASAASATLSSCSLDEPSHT
Target sequence (P09471 whole entry, looked up): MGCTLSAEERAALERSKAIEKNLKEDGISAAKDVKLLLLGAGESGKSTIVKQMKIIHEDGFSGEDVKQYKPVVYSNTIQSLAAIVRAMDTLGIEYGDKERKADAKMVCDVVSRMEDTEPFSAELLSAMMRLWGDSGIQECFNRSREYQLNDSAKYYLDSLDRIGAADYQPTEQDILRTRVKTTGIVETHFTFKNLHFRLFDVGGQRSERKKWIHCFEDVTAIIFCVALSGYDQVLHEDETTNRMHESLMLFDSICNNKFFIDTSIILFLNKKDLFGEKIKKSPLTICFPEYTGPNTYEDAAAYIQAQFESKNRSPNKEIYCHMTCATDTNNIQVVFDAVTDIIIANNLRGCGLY
Insulin prom inh: TRM-6 insulin promoter activity inhibition; TRM-6 cells (human fetal islet line), insulin promoter-eGFP reporter, imaging; reporter expression induced with tamoxifen; 0.9% of 130,000 active; inhibition, % at 2 µM;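 active = inhibition above the mean plus 3 SD, with well images judged a real hit on visual review, cut at about 60% in these data, passing the limit was not always enough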
Insulin prom inh cell count: second read-out of Insulin prom inh, no call of its own (marks repeat the call); normalized cell count, %; measured here: cell count, toxicity; reference of the scale not given here;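 cells exposed to compound for 48 h; stained nuclei by imaging scaled within each plate; lower means fewer cells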
HSV augment primary fold: further read-out of HSV augment, marked with its call; fold increase; compound at 10 µM; measured here: primary screen fold increase 10 uM; tested in PC3 cells;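 GFP signal in the first replicate; 1 = infected wells without compound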
* marks the source's active call; other numbers are inactive results; i = inactive; nt = no result given.

SMILES | PKD1 kinase inh | GALR2 agonist | HSV augment | HSV augment primary fold | RGS16-Gao HTS | Insulin prom inh | Insulin prom inh cell count
Cc1ccc(S(=O)(=O)N2CCN(C(=O)c3cccc(F)c3)CC2)cc1 | -9 | -3.4 | i | 0.98 | 107 | -46 | 73
CC(C)(C)CC(C)(C)NC(=O)c1ccccc1 | -10 | nt | i | 0.97 | 105 | nt | nt
COc1ccc(/C=N/Nc2nc3ccccc3o2)cc1OC | -9 | -0.8 | i | 0.81 | 105 | -29 | 90
O=C1C2C3C=CC(C3)C2C(=O)N1c1cccc2cccnc12 (centres undefined) | -13 | 0.0 | i | 1.1 | 105 | nt | nt
Cn1nnnc1SCC(=O)N1c2ccccc2Sc2ccc(Cl)cc21 | -5 | -1.1 | i | 0.84 | 98 | 47 | 100
O=C(N1CCOCC1)N1CCN(c2ccc(F)cc2)CC1 | -3 | -0.5 | i | 0.85 | 101 | 0 | 113
NC(=O)[C@@H]1CC2(CC(c3cccc(NC(=O)[C@H]4CCC(=O)N4)c3)=NO2)CN1C(=O)c1ccc(Cl)cc1 (some centres undefined) | nt | nt | i | 0.98 | 100 | nt | nt
COc1ccc(OC)c(N=C(N)N=C(N)N)c1 | -7 | nt | i | 0.8 | 101 | nt | nt
C=CCN1c2ccccc2[C@]23C[C@@H](C(=O)OC)N(C(=O)C4CCC4)C2=NC(C(=O)OC)=C(C(=O)OC)[C@H]13 | nt | nt | i | 0.9 | 102 | nt | nt
COc1ccc(C(=O)Nc2ccc(C)c(S(=O)(=O)N3CCCCCC3)c2)cc1 | 5 | nt | i | 0.94 | 101 | nt | nt
CCC(=O)Nc1cc(C(=O)OCC(=O)c2ccc(Cl)cc2Cl)ccc1C | -7 | -0.3 | i | 0.74 | 101 | nt | nt
CC1CCc2c(sc(NC(=O)C(=O)NCc3ccco3)c2C#N)C1 (centres undefined) | -8 | -1.5 | i | 0.94 | 108 | 20 | 84
Cc1noc(NS(=O)(=O)c2ccc(N/C=C/C(=O)c3ccccc3)cc2)c1C | 4 | -0.5 | i | 0.7 | 102 | -18 | 110
C/C(=C1/SC(N2CCOCC2)=NC1=O)c1ccc(Cl)cc1 | 0 | -1.5 | i | 0.92 | 118 | nt | nt
O=c1[nH]c(SCc2ccc(Cl)cc2)nc2ccccc12 | -6 | nt | i | 0.94 | 105 | nt | nt
O=C(CCC(=O)N(CC(=O)NC1CCCCC1)Cc1cccs1)Nc1nccs1 | nt | nt | i | 0.94 | 98 | nt | nt
N=c1c(C(=O)NCc2ccc(F)cc2)cc2c(=O)n3ccccc3nc2n1Cc1cccnc1 | 5 | 6.2 | i | 0.64 | 99 | -16 | 115
CS(=O)(=O)N(CC(=O)Nc1cccc([N+](=O)[O-])c1)c1ccccc1 | -3 | nt | i | 1 | 106 | 15 | 125
C#CCn1c(-c2cccs2)nc2ccccc21 | 0 | nt | i | 0.9 | 102 | 93* | 141*
CCOc1ccc(N(CC)S(=O)(=O)c2ccc3c(c2)n(C)c(=O)c(=O)n3C)cc1 | -7 | -2.4 | i | 0.9 | 101 | nt | nt
Cc1cc(C)n(-c2nnc(C)n2/N=C/c2ccc(O)cc2)n1 | 1 | nt | i | 0.95 | 111 | nt | nt
COc1ccc(CN(CC2CCCO2)C(=O)CN2C(=O)COc3ccccc32)cc1OC (centres undefined) | -11 | -1.7 | i | 0.89 | 55 | 47 | 159
CCC(C)c1ccc(C2C3=C(Nc4nc(N)[nH]c(=O)c42)c2ccccc2C3=O)cc1 (centres undefined) | nt | nt | i | 0.82 | 99 | nt | nt
O=C(CN1CCN(C(c2ccccc2)c2ccccc2)CC1)N1CCN(c2ccccc2)CC1 | nt | nt | i | 0.92 | 96 | nt | nt
O=C(CCCCCNC(=O)c1ccccc1)N/N=C/c1ccco1 | 10 | nt | i | 1.3 | 96 | 14 | 110

Random excerpt: 3 compounds from above.
SMILES | PKD1 kinase inh | GALR2 agonist | HSV augment | HSV augment primary fold | RGS16-Gao HTS | Insulin prom inh | Insulin prom inh cell count
C#CCn1c(-c2cccs2)nc2ccccc21 | 0 | nt | i | 0.9 | 102 | 93* | 141*
CCOc1ccc(N(CC)S(=O)(=O)c2ccc3c(c2)n(C)c(=O)c(=O)n3C)cc1 | -7 | -2.4 | i | 0.9 | 101 | nt | nt
O=C(CCCCCNC(=O)c1ccccc1)N/N=C/c1ccco1 | 10 | nt | i | 1.3 | 96 | 14 | 110

Further records follow:
SMILES | PKD1 kinase inh | GALR2 agonist | HSV augment | HSV augment primary fold | RGS16-Gao HTS | Insulin prom inh | Insulin prom inh cell count
N/C(=N\OC(=O)CCn1cccc(C(F)(F)F)c1=O)c1ccc(Cl)cc1 | nt | nt | i | 1 | 96 | nt | nt
Cn1cc(/C=N/n2cnc3scc(-c4ccc(Cl)cc4)c3c2=O)c2ccccc21 | -9 | 4.5 | i | 0.59 | 108 | -194 | 9
COc1c(Cl)cc(-c2noc(C)c2C(=O)NCc2ccc3c(c2)OCO3)cc1Cl | -16 | 1.8 | nt | nt | 105 | 0 | 139
CSc1cc(-c2ccc(Cl)cc2)c(C(=O)NN)s1 | -10 | -3.4 | i | 0.76 | 50 | 0 | 125
Nc1cc(N)nc(SCC(=O)Nc2ccc(Br)cc2Cl)n1 | nt | nt | i | 0.92 | 68 | nt | nt
NC(=S)NC(=O)c1ccccc1 | nt | nt | i | 1.2 | 103 | nt | nt
Cc1nn(C(C)C(=O)Nc2sc3c(c2C#N)CCCC3)c(C)c1[N+](=O)[O-] (centres undefined) | 0 | -1.2 | i | 0.84 | 104 | nt | nt
COc1ccc(OC)c(NC(=O)c2ccc(Cl)cc2)c1 | 4 | nt | i | 1.1 | 105 | -37 | 106
Cc1nc(N2CCOCC2)c2c(C)c(C(=O)Nc3ccc(C(F)(F)F)cc3)sc2n1 | 0 | nt | i | 0.87 | 101 | 36 | 88
Cc1nnc(SCC(=O)NC2CCS(=O)(=O)C2)n1-c1ccccc1 (centres undefined) | 2 | nt | i | 1.1 | 98 | 33 | 134
c1cnc2nc(CSc3ncn[nH]3)cn2c1 | -5 | nt | i | 0.99 | 100 | 15 | 107
CCCNC(=O)N1CCCC(C(=O)c2cccc(Cl)c2)C1 (centres undefined) | -7 | nt | i | 1.1 | 98 | nt | nt
Cc1nccn1CCCN1C(=O)CNC1=S | 5 | -0.6 | i | 0.98 | 101 | 18 | 148
O=C(COC(=O)c1ccc2c(c1)OCO2)Nc1nc(-c2ccccc2)cs1 | -8 | nt | i | 0.96 | 103 | nt | nt
O=C(COc1ncnc2scc(-c3ccccc3)c12)NC1CCCc2ccccc21 (centres undefined) | -5 | -2.0 | i | 0.89 | 94 | -47 | 99
O=S(=O)(Nc1cc(S(=O)(=O)N2CCOCC2)ccc1N1CCCC1)c1cccs1 | -6 | nt | i | 0.96 | 102 | nt | nt
Cc1nnc(SCC(=O)NC(=O)NCc2ccco2)s1 | -3 | nt | i | 1 | 101 | nt | nt
COC(Cc1n[nH]c(=S)n1-c1ccc(Cl)cc1)OC | -15 | -1.8 | i | 0.92 | 100 | -11 | 69
C/C(=N\Nc1cccc(Cl)c1)c1ccc(-n2ccnc2)cc1 | -9 | -0.4 | i | 0.88 | 104 | -21 | 163
CCCn1c(CNC(=O)c2ccccc2)nc2ccccc21 | -10 | -1.2 | i | 0.93 | 100 | -15 | 194
O=C(C1CCC1)N1CCc2cc(S(=O)(=O)NCc3ccco3)ccc21 | -11 | -0.7 | i | 1 | 98 | 82* | 57*
CC1CCCCN1C(=O)CSc1nc2cc3c(cc2c(=O)n1Cc1ccc2c(c1)OCO2)OCO3 (centres undefined) | 2 | -0.9 | i | 0.81 | 95 | -48 | 59
CCCCCC#CCC#CCC#CCC#CCCCC(=O)O | -7 | -0.7 | i | 1.1 | 96 | -23 | 150
CC1CCN(S(=O)(=O)c2ccc(NC(=O)Cc3ccccc3)cc2)CC1 | -10 | -2.1 | i | 0.99 | 104 | 43 | 31
COc1ccc(CCNC(=O)Cn2cnc3c2c(=O)n(C)c(=O)n3C)cc1OC | 5 | -0.4 | i | 0.85 | 101 | 18 | 106

(continued)
SMILES | PKD1 kinase inh | GALR2 agonist | HSV augment | HSV augment primary fold | RGS16-Gao HTS | Insulin prom inh | Insulin prom inh cell count
O=C(CCc1ccccc1)Nc1cccc(NC(=O)CCc2ccccc2)c1 | -3 | -0.7 | i | 0.81 | 101 | 17 | 181
CCOc1ccc(C(=O)CCN2CCCCC2)cc1 | -7 | -1.5 | i | 0.9 | 99 | nt | nt
Cn1c(=O)c2c(=O)cc(NNC(=O)C(C)(C)C)[nH]c2n(C)c1=O | -2 | -3.5 | i | 0.96 | 102 | -8 | 68
Cc1ccc(N(CCC(=O)O)S(=O)(=O)c2cccc(C(F)(F)F)c2)cc1 | -1 | nt | i | 1.1 | 99 | 41 | 74
C=CCn1c(N)cc(=O)nc1SC(C)C(=O)Nc1cccc2ccccc12 (centres undefined) | -14 | 1.1 | i | 1 | 96 | i | 35
COc1cccc(-c2nc(-c3ccc(NC(=O)c4cccs4)cc3)no2)c1 | 6 | -2.4 | i | 0.91 | 96 | -16 | 118
Cc1ccc(OCCOCCNC(C)(C)C)c([N+](=O)[O-])c1 | 1 | 0.2 | i | 1 | 101 | 5 | 106
CCn1c(=O)c2cc(C(=O)NCCN3CCOCC3)sc2c2ccccc21 | -3 | -0.5 | nt | nt | 122 | nt | nt
O=C(CCc1nnc(COc2ccccc2)o1)NC1(c2ccccc2)CC1 | 3 | nt | i | 0.81 | 104 | nt | nt
CC1CCCCN1S(=O)(=O)c1ccc(NC(=O)c2cccs2)cc1 (centres undefined) | -9 | -0.1 | i | 0.71 | 102 | 7 | 135
O=C(CN1C(=O)NC2(CCCC2)C1=O)Nc1ccc(S(=O)(=O)N2CCOCC2)cc1 | -6 | nt | i | 0.98 | 103 | nt | nt
NC(N)=N/N=C/c1ccc(OCc2ccc(Cl)cc2)cc1 | 7 | -0.8 | i | 0.91 | 99 | 16 | 121
O=C(N/N=C/c1c(O)n(Cc2ccccc2)c(=O)c2ccccc12)c1cccnc1 | 3 | nt | i | 1.2 | 95 | nt | nt
COc1ccc(C(C)=O)cc1CSC(=N)N | -1 | nt | i | 0.86 | 98 | -54 | 107
N#C/C(=C\c1ccco1)c1nc2ccccc2s1 | -7 | -1.4 | i | 1.3 | 108 | nt | nt
COc1cccc(C(=O)NC(=S)Nn2cnnc2)c1OC | -6 | nt | i | 0.97 | 98 | nt | nt
CCC(=O)Nc1ccc(N2CCN(Cc3ccccc3F)CC2)cc1 | -12 | -2.5 | i | 0.79 | 99 | nt | nt
CCn1c(=O)c(C(=O)Nc2cccnc2)c(O)c2ccccc21 | 2 | -1.5 | nt | nt | nt | -58 | 115
CN1C(=O)c2ccc(C(=O)NC3CCCCC3)cc2C1=O | 1 | -2.7 | i | 1 | 102 | 31 | 161

6 entries out of the list, ordered by number of heavy atoms, smallest number first:
SMILES | PKD1 kinase inh | GALR2 agonist | HSV augment | HSV augment primary fold | RGS16-Gao HTS | Insulin prom inh | Insulin prom inh cell count
CN1C(=O)c2ccc(C(=O)NC3CCCCC3)cc2C1=O | 1 | -2.7 | i | 1 | 102 | 31 | 161
CCn1c(=O)c(C(=O)Nc2cccnc2)c(O)c2ccccc21 | 2 | -1.5 | nt | nt | nt | -58 | 115
CC1CCCCN1S(=O)(=O)c1ccc(NC(=O)c2cccs2)cc1 (centres undefined) | -9 | -0.1 | i | 0.71 | 102 | 7 | 135
CCC(=O)Nc1ccc(N2CCN(Cc3ccccc3F)CC2)cc1 | -12 | -2.5 | i | 0.79 | 99 | nt | nt
C=CCn1c(N)cc(=O)nc1SC(C)C(=O)Nc1cccc2ccccc12 (centres undefined) | -14 | 1.1 | i | 1 | 96 | i | 35
O=C(CCc1ccccc1)Nc1cccc(NC(=O)CCc2ccccc2)c1 | -3 | -0.7 | i | 0.81 | 101 | 17 | 181

Taken from above:
Reading of O=C(COc1ncnc2scc(-c3ccccc3)c12)NC1CCCc2ccccc21 (centres undefined) under Insulin prom inh cell count: 99
Reading of Cc1ccc(OCCOCCNC(C)(C)C)c([N+](=O)[O-])c1 under Insulin prom inh cell count: 106
Reading of CC(C)(C)CC(C)(C)NC(=O)c1ccccc1 under RGS16-Gao HTS: 105
